RE007 growth inh: less growth of the S. pombe RE007 Vpr strain | S. pombe RE007 Vpr strain, BacTiter-Glo ATP luminescence, 24 h; control for the full effect not named in the record | Potency, µM (top dose mostly 92.2 µM), for the others: at the top dose activity change, negative = less growth | AID 651644 | 0.21% of 360,000 active; active = well fitted falling curve with a large enough effect; inconclusive = small, poorly fitted or top-dose-only effect; inactive = no such curve, though single readings can be large or run the other way;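 note: % is set by controls: 0 for no effect and ±100 for the full control effect; nearly all actives have a fitted effect of over 50% in size; the assay follows cell death caused by Vpr and the record does not say whether a fall means rescue or toxicity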
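Fission yeast strain RE007, carrying one chromosomally integrated HIV-1 vpr copy, was seeded at OD 0.01 in PMG+AL medium with 23 nL pinned compound. After 24 h at 30 °C and 99% humidity, viability was read by BacTiter-Glo luminescence.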
StopGo reporter: FMDV 2A StopGo reporter, luciferase signal; human cells with a luciferase reporter of 2A StopGo recoding; control for the full effect not named in the record; 1.2% of 410,000 active; Potency, µM (titrated, usually from 57.9 µM), for inactives: at the highest dose signal change, negative = less light; active = well fitted falling curve with a large enough effect; inconclusive = small, poorly fitted or top-dose-only effect; inactive = no such curve, though single readings can be large or run the other way; tested in HEK293T cells; note: % is set by controls: 0 for no effect and ±100 for the full control effect; nearly all actives have a fitted effect of over 45% in size; luciferase light after 4 h
SARS PLP yeast: SARS-CoV PLP inhibition in yeast. S. cerevisiae expressing SARS-CoV PLpro, growth rescue; control for the full effect not named in the record. Potency, µM (highest dose often 32.9 µM), for the others: top-dose activity, positive = growth rescue. 0.19% of 330,000 active; active means well fitted rising curve with a large enough effect; inconclusive means small, poorly fitted or top-dose-only effect; inactive means no such curve, though single readings can be large or run the other way; note: 0% is about no effect; nearly all actives have a fitted effect of over 55% in size; growth read by luminescence after 48 h
An asterisk follows results filed as active; ? = inconclusive; [ ] = remark or other dose. Potency is the fitted concentration of half-maximal effect.

SMILES	RE007 growth inh	StopGo reporter	SARS PLP yeast
CC(C)(C)NC(=O)CC1C[C@H](C(=O)N2CCOCC2)[C@@]2(CCC3CCCC3)c3[nH]c4ccccc4c3CCN2C1=O (stereo partly drawn)	8%	5%	1%
CCC[C@@H](O)c1cc2cc(OC)c(OC)cc2c(=O)o1	-8%	-19%	-3%
COc1cc([C@@H]2CC=C(C(=O)O)[C@H](c3ccc(F)cc3)N2S(=O)(=O)c2ccc(C)cc2)cc(OC)c1OC	3%	7%	4%
CCN1CCN(C2=CC3=CC(=C(C#N)C#N)CCC3CC2)CC1 (stereo not drawn)	-15%	0%	-1%
CCCC[C@H](CC(=O)c1ccccc1)[C@@H](OC(C)=O)C(=O)Oc1c(C(C)C)cccc1C(C)C	0%	?	4%
COC(=O)[C@@]12CCCCN1[C@H](c1ccc(-c3ccc(OC)cc3)c(OC)c1)[C@@H]1C(=O)N(C)C(=O)[C@@H]12	9%	-16%	-5%
CCCCN(C(=O)c1cnc(C)cn1)c1c(N)n(CCC)c(=O)[nH]c1=O	2%	-9%	-2%
O=C(COc1cccnc1[N+](=O)[O-])Nc1ncc(Cl)cc1Cl	1%	8%	-10%
CN(Cc1ccccc1Cl)C(=O)CNC(=O)C12CC3CC(CC(C3)C1)C2	1%	-8%	0%
O=C(CNCc1ccco1)Nc1cc(S(=O)(=O)N2CCOCC2)ccc1N1CCCC1	-2%	-2%	1%
Cc1ccccc1OCC(=O)OCC(=O)Nc1ccc(Cl)cn1	3%	-12%	-5%
C/C(=N\OCC(=O)Nc1ccccc1Br)c1cccs1	-13%	42%[activator]	-2%
CCN(C[C@H]1N[C@@](Cc2ccccc2)(C(=O)OC)[C@H]2C(=O)N(Cc3ccccc3)C(=O)[C@@H]12)S(=O)(=O)c1ccc(C)cc1	-22%	?	-5%
COc1ccc(S(=O)(=O)N(C)Cc2ccc3c(c2)OCCO3)cc1	17%	15%	-1%
COc1ccccc1NC(=O)CCCc1nc(-c2ccc(OC)c(OC)c2)no1	7%	-20%	0%
O=C(Nc1cccc(S(=O)(=O)N2CCCC2)c1)c1cncc(Br)c1	-8%	-8%	-3%
NC(=O)C1CCN(C(=O)CCn2c(=O)oc3ccccc32)CC1	5%	4%	-2%
OCC[C@H]1C[C@@H](O)[C@H](O)[C@]2(OCc3ccccc32)O1	7%	-12%	-24%
COC(=O)[C@H]1C[C@H]2[C@@H]3CC[C@H]4C[C@@H](OC)CC[C@]4(C)[C@H]3CC[C@]2(C)[C@@]2(CCCO2)O1	-21%	-3%	6%
COc1ccc(N2CCN(C(CNC(=O)C(=O)NCCCn3ccnc3)c3ccco3)CC2)cc1 (stereo not drawn)	-4%	-18%	3%
CCC(CC)C(=O)c1c[nH]c(C(=O)NN)c1	-1%	-5%	1%
CCN(C(=O)COC(=O)c1ccc2ccccc2c1)c1c(N)n(Cc2ccccc2)c(=O)[nH]c1=O	3%	-16%	7%
C[C@H](NC(=O)c1nc[nH]c1C(=O)N(C)Cc1ccccc1)C(=O)OC(C)(C)C	9%	0%	2%
COc1cccc(NC(=O)CN(C)C(=O)c2ccccn2)c1	-2%	39%[activator]	0%
Cc1ccc(C)c(S(=O)(=O)NCCC(=O)N2CCCC(C(N)=O)C2)c1 (stereo not drawn)	0%	0%	-2%
O=C(NCCCN1CCN(c2ccc(F)cc2)CC1)Nc1ccc([N+](=O)[O-])cc1	-5%	?	-1%
NS(=O)(=O)c1ccc(CCn2c(=S)[nH]c3ccc(F)cc3c2=O)cc1	4%	-15%	2%
COC(=O)C(CC(C)C)N(Cc1cc(OC)cc(OC)c1)S(=O)(=O)c1ccccc1Br (stereo not drawn)	2%	0%	-26%
C=CCn1c(=S)[nH]c2cc(C(=O)N3CCN(c4ccccc4OC)CC3)ccc2c1=O	5%	?	0%
CCC(C)Sc1ccc([C@@H]2[C@@H]3C(=O)N(C)C(=O)[C@@H]3[C@]3(C(=O)OC)CCCCN23)cc1 (stereo partly drawn)	-13%	-4%	-5%
C[C@H](NC(=O)c1[nH]cnc1C(=O)Nc1ccccc1)c1ccccc1	-10%	-21%	0%
CC[C@@H](C)[C@@H]1CN([C@@H](CN2CCC[C@H]2CN2C(N)=NC[C@H]2CC(C)C)C(C)C)C(=N)N1CCc1ccc(Cl)c(Cl)c1	26%	-12%	-3%
O=C(c1ccc2ccccc2n1)N1CCN(S(=O)(=O)c2ccccc2)CC1	-9%	?	1%
CCCN(CC(=O)Nc1ccccc1OC)C(=O)c1ccc(COc2ccccc2)o1	-5%	0%	1%
COc1cc2c(cc1OC)CN(C(=O)CCNC(=O)c1ccccc1Cl)CC2	11%	-23%	2%
N#Cc1ccc(CN2CCN(C(=O)C3CC(=O)N(c4ccccc4F)C3)CC2)cc1 (stereo not drawn)	-4%	0%	0%
Cc1ccc(NC(=O)CN(C)C(=O)c2cc3c(s2)CCCCC3)cc1	-8%	2%	0%
O=C(/C=C/c1ccccc1[N+](=O)[O-])NNC(=O)c1ccncc1	-2%	-27%	1%
CN(C(=O)c1ccc(NC(=O)Cc2cccc(NC(=O)C3CCCN(C(=O)C4CCCCC4)C3)c2)cc1)C1CCCC1 (stereo not drawn)	-16%	-22%	1%
Cc1cc(C)nc(SCC(=O)NCC2COc3ccccc3O2)n1 (stereo not drawn)	2%	-10%	1%
COC(=O)C1=C(c2ccc(F)cc2OCc2ccccc2)C[C@@H]2CC[C@H]1N2C(=O)NCc1ccco1	8%	?	1%
O=C(C[C@@H]1C/C=C\C[C@H](Cc2ccc(F)cc2)C(=O)OCCNC1=O)N[C@H](CO)Cc1ccccc1	-8%	-28%	-11%
CC1C2NC(=O)N(Cc3ccccc3)C1(C)Oc1ccccc12 (stereo not drawn)	-6%	-19%	1%
CNC[C@H]1Oc2c(NC(=O)C3CCCCC3)cccc2C(=O)N([C@H](C)CO)C[C@@H]1C	1%	31%[activator]	-5%
O=C(CSc1nc2[nH]ncc2c(=O)[nH]1)NCCc1ccccc1	7%	2%	2%
CC(Oc1ccc(Br)cc1)C(=O)NC1CCCCCC1 (stereo not drawn)	6%	21%	3%
COc1ccc(S(=O)(=O)N2CCOCC2)cc1NC(=O)COc1ccc2c(C)cc(=O)oc2c1	0%	-4%	-1%
COC(=O)c1ccc(CSc2cc(C)c3cc(C)cc(C)c3n2)o1	-2%	-30%	1%
CCCN(CCC)CC(O)COc1ccc2c(c1)OCO2 (stereo not drawn)	16%	17%	1%
COc1cccc(NC(=O)CN(C)C(=O)c2ccc(N3CCCCC3)c([N+](=O)[O-])c2)c1	3%	-26%	7%
Cc1ccc(C2(C)NC(=O)N(CC(=O)N3CCN(C(=O)c4cccs4)CC3)C2=O)cc1 (stereo not drawn)	22%	-6%	0%
COC(=O)C1=C(c2ccc(OCc3ccccc3)cc2)C[C@@H]2CC[C@H]1N2C(=O)NCc1ccc([N+](=O)[O-])cc1	7%	0%	2%
O=C(COC(=O)Cc1cccs1)NCC(=O)Nc1ccc(F)cc1	-9%	-15%	-5%
COc1ccc(/C=N/N=C(\N)c2nonc2N)cc1	-15%	-25%	3%
CCOc1ccccc1N1CCN(C(=O)c2ccccc2OCc2c(C)noc2C)CC1	1%	-11%	2%
CC(NS(=O)(=O)c1ccc(Cl)cc1)C(=O)OCC(=O)c1ccc[nH]1 (stereo not drawn)	-3%	-5%	-4%
COC(OC)c1ccc(C#N)c(=O)[nH]1	-2%	-10%	-5%
COc1cc(OC)cc(C(=O)OCC(=O)c2cc(C)n(CC3CCCO3)c2C)c1 (stereo not drawn)	6%	-6%	1%
C[C@H](CO)N1C[C@H](C)[C@@H](CN(C)C(=O)Nc2ccc3c(c2)OCO3)Oc2c(NC(=O)Nc3ccc(C(F)(F)F)cc3)cccc2C1=O	6%	-14%	-9%
c1cncc(CSc2nnc3ccc(-c4cccs4)nn23)c1	5%	-20%	2%

5 structures from above, arranged by length of the SMILES, low to high.
SMILES	RE007 growth inh	StopGo reporter	SARS PLP yeast
COC(OC)c1ccc(C#N)c(=O)[nH]1	-2%	-10%	-5%
c1cncc(CSc2nnc3ccc(-c4cccs4)nn23)c1	5%	-20%	2%
CCOc1ccccc1N1CCN(C(=O)c2ccccc2OCc2c(C)noc2C)CC1	1%	-11%	2%
COc1cc(OC)cc(C(=O)OCC(=O)c2cc(C)n(CC3CCCO3)c2C)c1 (stereo not drawn)	6%	-6%	1%
Cc1ccc(C2(C)NC(=O)N(CC(=O)N3CCN(C(=O)c4cccs4)CC3)C2=O)cc1 (stereo not drawn)	22%	-6%	0%

The results go on.
SMILES	RE007 growth inh	StopGo reporter	SARS PLP yeast
Cc1cc(C)cc(NC(=S)/C(=C(\[O-])c2ccc(Cl)cc2Cl)[n+]2ccccc2)c1	-3%	9%	-1%
CCOC(=O)c1cc(C(=O)OCC)c(=O)[nH]c1N1CCCCC1	-11%	1%	2%
COc1cc2c(cc1OC)CN(C(=O)CCC(=O)c1ccc(F)cc1)CC2	6%	-16%	-4%
O=C(CNC(=O)c1ccncc1)N/N=C/c1ccccn1	-6%	-14%	1%
O=C(CSc1nnc2ccc(-c3ccncc3)nn12)N1CCCCC1	-8%	3%	0%
CC(C)(C)OC(=O)C[C@@H]1C/C=C\C[C@@H](CC(=O)N(CCO)Cc2ccccc2)C(=O)N[C@H](Cc2c[nH]c3ccccc23)COC1=O	9%	18%	-21%
CC(C)(C)NC(=O)C[C@H]1C[C@H](C(=O)N2CCOCC2)[C@@]2(CCC3CCCC3)c3[nH]c4ccc(Cl)cc4c3CCN2C1=O	4%	?	-5%
COc1ccc(NC(C)=O)cc1S(=O)(=O)N(C)Cc1c(C)nn(-c2ccccc2)c1C	-10%	-8%	0%
CCOC(=O)c1c(O)cc(OC)cc1CCc1ccccc1	8%	-19%	-12%
COc1cccc(-c2cc(C(F)(F)F)nc(-n3ccc([N+](=O)[O-])n3)n2)c1	10%	-12%	-1%
Cc1c(NC(=O)COC(=O)Cc2ccc(Br)cc2)c(=O)n(-c2ccccc2)n1C	-12%	-23%	2%
Cc1ccc(S(=O)(=O)N2CCN(C(=O)c3ccccc3OCc3c(C)noc3C)CC2)cc1	-2%	0%	0%
CC(=O)Nc1ccc(SC[C@H](C)CN2CC[C@H](C(C)(C)C)CCC2=O)cc1	4%	-10%	-9%
COc1cc(C(=O)Nc2ccc(C)cn2)ccc1OCC(=O)N1CCOCC1	-1%	14%	-2%
O=C(N[C@H]1CCC(=O)N(CCSc2ccc(Br)cc2)CC1)OCc1ccccc1	-11%	32µM*	1%
COc1ccc(CN(C)C(=O)CCc2ccc(S(=O)(=O)N3CCCCCC3)cc2)c(OC)c1	13%	0%	-1%
CC(C)(C)N1CC23C=CC(C[C@@H]2C1=O)O3 (stereo partly drawn)	-12%	19%	-4%
O=C(Nc1cccc(OC(=O)N2CCCCC2)c1)N1CCOCC1	2%	-12%	-1%
O=C(NC1=NCCS1)c1ccc(Cl)c(S(=O)(=O)N2CCOCC2)c1	11%	8%	-1%
Cc1ccc(S(=O)(=O)Nc2ccccc2-c2nc3ccccc3[nH]c2=O)cc1	-22%	-8%	-11%
O[C@H]1c2ccccc2[C@H](Cc2cncs2)[C@@H]1Br	-7%	0%	-8%
CCCc1ccc(C(=O)COC(=O)CN2C(=O)NC3(CCCCC3C)C2=O)cc1 (stereo not drawn)	2%	?	10%
Cc1cccc(OCc2nnc(SCC(=O)N(c3ccccc3)C3CCS(=O)(=O)C3)o2)c1 (stereo not drawn)	11%	?	0%
Cc1ccc(S(=O)(=O)N2[C@@H](c3ccc(Cl)c(Cl)c3)C(C(=O)O)=C[C@H]2CC2CCCC2)cc1	5%	-2%	?
Cc1ccc(C(=O)CN(CCCC(N)=O)S(=O)(=O)c2ccc([N+](=O)[O-])cc2)cc1	4%	-2%	-2%
COc1ccc(CN(C)C(=O)COC(=O)c2c(C)nn(-c3ccc(F)cc3)c2Cl)cc1	-3%	?	-4%
CC[C@]12c3[nH]c4cc(CCC(=O)N(C)C)ccc4c3CCN1C(=O)[C@@H](CC(=O)NCc1ccc(OC)c(OC)c1)C[C@@H]2C(=O)N1CCN(C(=O)c2ccco2)CC1	-15%	3%	16%
C=CC[C@@H](CC(=O)N(CCO)Cc1ccccc1)C(=O)N[C@@H](COC(=O)[C@@H](CC=C)Cc1ccc(F)cc1)Cc1c[nH]c2ccccc12	-6%	0%	1%
CN(C(=O)c1ccc(NC(=O)Cc2ccc([N+](=O)[O-])cc2)cc1)C1CC1	-12%	3%	-9%

Not a retest: entries from further up.
SMILES	RE007 growth inh	StopGo reporter	SARS PLP yeast
COc1ccc(CN(C)C(=O)COC(=O)c2c(C)nn(-c3ccc(F)cc3)c2Cl)cc1	-3%	?	-4%
CC[C@]12c3[nH]c4cc(CCC(=O)N(C)C)ccc4c3CCN1C(=O)[C@@H](CC(=O)NCc1ccc(OC)c(OC)c1)C[C@@H]2C(=O)N1CCN(C(=O)c2ccco2)CC1	-15%	3%	16%
C=CC[C@@H](CC(=O)N(CCO)Cc1ccccc1)C(=O)N[C@@H](COC(=O)[C@@H](CC=C)Cc1ccc(F)cc1)Cc1c[nH]c2ccccc12	-6%	0%	1%
CN(C(=O)c1ccc(NC(=O)Cc2ccc([N+](=O)[O-])cc2)cc1)C1CC1	-12%	3%	-9%

The list is partial; rates above refer to the full screens.
